Source: PubChem BioAssay
TRPV1 potentiator – HTS Assay for Compounds that Act as Potentiators of the Vanilloid Receptor 1 | 320,000 tested, 0.02% active | TRPV1-expressing cells, Fluo-8 calcium influx, capsaicin EC20 potentiation; host cell line not named in the record; control for the full effect not named in the record | AID 540277, 2011 | potentiation, % at 8.33 µM | Transient receptor potential cation channel subfamily V member 1 (Homo sapiens), Q8NER1; active means potentiation above 80%; inconclusive means 30% to 80%; inactive means below 30%; further: 0% is about no effect
Target sequence (Q8NER1 whole entry, looked up): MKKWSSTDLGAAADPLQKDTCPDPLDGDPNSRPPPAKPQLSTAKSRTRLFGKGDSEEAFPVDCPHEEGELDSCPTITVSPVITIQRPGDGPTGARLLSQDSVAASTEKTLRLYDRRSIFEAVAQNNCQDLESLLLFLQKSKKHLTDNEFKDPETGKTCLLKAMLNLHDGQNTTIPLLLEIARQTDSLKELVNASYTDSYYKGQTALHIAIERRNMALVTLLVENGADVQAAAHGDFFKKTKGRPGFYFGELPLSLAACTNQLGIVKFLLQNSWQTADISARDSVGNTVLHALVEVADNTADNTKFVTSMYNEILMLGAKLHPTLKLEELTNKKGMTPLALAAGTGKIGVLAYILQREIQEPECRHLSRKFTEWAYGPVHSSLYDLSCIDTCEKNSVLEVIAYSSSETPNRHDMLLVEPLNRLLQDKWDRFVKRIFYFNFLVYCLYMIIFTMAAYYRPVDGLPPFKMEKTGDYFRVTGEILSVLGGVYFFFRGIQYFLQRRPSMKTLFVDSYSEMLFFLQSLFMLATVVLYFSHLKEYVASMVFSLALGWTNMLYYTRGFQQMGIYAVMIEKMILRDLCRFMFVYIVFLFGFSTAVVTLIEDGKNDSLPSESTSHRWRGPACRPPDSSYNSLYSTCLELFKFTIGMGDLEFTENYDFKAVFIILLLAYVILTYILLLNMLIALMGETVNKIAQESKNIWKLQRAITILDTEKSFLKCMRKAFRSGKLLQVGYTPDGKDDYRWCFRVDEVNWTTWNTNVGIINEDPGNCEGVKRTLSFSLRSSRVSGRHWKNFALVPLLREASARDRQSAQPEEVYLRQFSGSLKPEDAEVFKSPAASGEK
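Fluo-8 calcium influx in TRPV1-expressing cells, kinetic read (ex 480/em 520 nm). Compound added and read 3 min for agonist activity, followed by capsaicin at EC20 final and 2 min further read for enhancement.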
gsp antagonist – qHTS for Antagonists of gsp, the Etiologic Mutation Responsible for Fibrous Dysplasia/McCune-Albright Syndrome: qHTS | 340,000 tested, 0.4% active | Potency, µM (top dose mostly 76.9 µM), for inactives: at the top dose activity change, negative = inhibition, usual class: inhibitors | gsp-mutant cells, cAMP HTRF, 30 min; control for the full effect not named in the record; active = falling curve of any shape with a large fitted effect; inconclusive = falling curve, mostly with a smaller effect; inactive = flat or rising curve; cell line not stated here;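 further: intracellular cAMP measured with PDE inhibitor Ro 20-1724 present during compound exposure; potency means the concentration at half of the fitted maximal effect; on the % scale 0 is the no-effect control and ±100 the full control effect; nearly all actives have a fitted effect of over 65% in size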
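Cells, 2000/well, grown 16–24 h in DMEM 10% FBS with 0.5 mg/ml G418, then compounds plus […] (300 uM addition stock), 30 min at 37C. cAMP read by HTRF (cAMP-d2 and anti-cAMP antibody-K in lysis buffer) after 30 min RT.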
ClpP mod – qHTS Assay for Activators of ClpP; purified B. subtilis ClpP, FRET peptide cleavage, 20 min; ATP-dependent Clp protease proteolytic subunit (Bacillus subtilis (strain 168)), P80244; AID 651965, 2013; 340,000 tested, 1.9% active; Potency, µM (highest dose often 57.5 µM), for the others: at the highest dose activity change, negative = active; active = well fitted falling curve with a large enough effect; inconclusive = small, poorly fitted or top-dose-only effect; inactive = no such curve, though single readings can be large or run the other way; further: potency means the concentration at half of the fitted maximal effect; the source files actives as falling curves though it sought activators and does not explain the sign; nearly all actives have a fitted effect of over 65% in size; many hits overshoot -100%
Target sequence (P80244 whole entry, looked up): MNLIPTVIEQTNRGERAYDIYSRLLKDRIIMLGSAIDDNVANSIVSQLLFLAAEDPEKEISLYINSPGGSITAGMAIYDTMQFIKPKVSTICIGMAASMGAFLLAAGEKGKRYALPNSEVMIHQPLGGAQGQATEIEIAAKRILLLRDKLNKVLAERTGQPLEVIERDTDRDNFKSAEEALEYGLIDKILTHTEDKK
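Purified B. subtilis ClpP, 10 microg/mL final in Tris/HCl pH8 with KCl, BSA, glycerol and Tween-20, cleaved an Abz/nitrotyrosine-quenched decapeptide. Fluorescence (ex 320, em 430) was read at 0 and 20 min at room temperature. Delta was normalized to 5.8 microM ADEP and DMSO/no-enzyme controls.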
Menin MLL FP FL – qHTS Assay for Inhibitors Targeting the Menin-MLL Interaction in MLL Related Leukemias: Competition With Fluorescein Labeled MLL-derived Peptide; 290,000 tested, under 10 active; FP activity change, % at 61.4 µM; Fluorescence polarization, fluorescein-MLL peptide displacement from menin; AID 1766, 2009; inconclusive = falling polarisation curve, or a change in total fluorescence; inactive = total fluorescence flat and polarisation flat or rising; no compound was filed as active; the % refers to the polarisation; negative = inhibition;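 further: % of control where 0% means no effect; inhibitors lower the polarisation; unlabelled MLL peptide was the positive control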
gsp agonist – qHTS for Agonist of gsp, the Etiologic Mutation Responsible for Fibrous Dysplasia/McCune-Albright Syndrome: qHTS. gsp mutant cells, cAMP HTRF, 30 min; control for the full effect not named in the record. Potency, µM (titrated, usually from 76.9 µM), for the others: top-dose activation (cAMP increase), usual class: activators. 340,000 tested, 0.13% active. AID 624287, 2012; active = well fitted activation curve with a large enough effect; inconclusive = small, poorly fitted or top-dose-only effect, or another doubt; inactive = no such curve, though single readings can be large or run the other way; cell line not stated here;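 further: phosphodiesterase inhibitor Ro 20-1724 added with compounds to block cAMP breakdown; potency means the concentration at half of the fitted maximal effect; nearly all actives have a fitted effect of over 60% in size; about a fifth of the inactives were tested at one dose only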
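Cells in DMEM/10% FBS with G418 were pretreated with compounds in DMSO plus […] (300 uM stock) for 30 min at 37C. cAMP was measured by HTRF (cAMP-d2 plus anti-cAMP antibody-K) after 30 min at room temperature.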
TRPML1 blocker – qHTS for Inhibitors of the Human Mucolipin Transient Receptor Potential 1 (TRPML1). activity change, negative = inhibition, % (concentration not given with the values). TRPML1-inducible cells, Ca2+ dye fluorescence, FDSS; active compounds read low; inhibition of EC80 agonist-evoked calcium signal. 390,000 tested, 0.02% active; in the data active means activity change below about -50%; inconclusive means about -30% to -50%; inactive means above about -30%;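 further: stimulus is agonist 54-4 at its EC80 concentration; on the % scale 0 is the no-effect control and ±100 the full control effect; the text of the record puts the active cut at -80%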
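Calcium fluorescence in TRPML1-DL cells induced overnight with Tet: a 110 s read after compound pin addition, then a 110 s antagonist read after challenge with 54-4 at 4 uM final (EC80).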
Sfp inh – qHTS Assay for Inhibitors of Bacillus subtilis Sfp phosphopantetheinyl transferase (PPTase). Biochemical Sfp PPTase activity, qHTS. Potency, µM, for inactives: max response, negative = inhibition, actives largely listed as inhibitors. 310,000 tested, 3.5% active. AID 1490, 2009; active means well fitted inhibition curve with a large enough effect; inconclusive means small, poorly fitted or top-dose-only effect, or another doubt; inactive means no such curve, though single readings can be large or run the other way;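 further: the enzyme is Sfp with the accession as filed and its product quenches rhodamine fluorescence; potency means the concentration at half of the fitted maximal effect; 0% = enzyme reaction without inhibitor and -100% = no enzyme wells; top concentration of the series not given in the record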
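Sfp 15 nM + cpd, 15 min RT; start w/ rhodamine-CoA 5 uM, BHQ-2-YbbR 12.5 uM (final); 50 mM Hepes pH 7.6, 10 mM MgCl2, 0.01% NP-40, 0.01% BSA; read 525/598 nm at 0 and 30 min.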
An asterisk follows results filed as active; ? = inconclusive; · = not tested or not shown; [ ] = dose if it differs, or a comment.

Below each SMILES – Menin MLL FP FL	TRPV1 potentiator	TRPML1 blocker	gsp antagonist	ClpP mod	Sfp inh	gsp agonist
1: O=C(c1ccc(C(F)(F)F)cc1)C1CCCN(C(=O)c2csnn2)C1 (centres undefined)
→ -0.4	-11	5	0%	0.5%	7%	-5%
2: O=c1c2[nH]c3ccc(Cl)cc3c2ncn1CCN1CCCCC1
→ -1.4	·	19	3%	-12%	25%	-4%
3: COc1cc(/C=N/NC(=O)c2cc(-c3cccn3C)n[nH]2)cc(OC)c1OC
→ 5.7	13	-6	9%	-13%	6%	-8%
4: Cn1c(SCC(=O)Nc2ccccc2F)nnc1-c1cccnc1
→ 2.1	-2	-6	0%	1.2%	17%	10%
5: COc1cccc(C2c3c(oc4ccc(F)cc4c3=O)C(=O)N2CCN2CCOCC2)c1OC (centres undefined)
→ 0.4	21	-9	0%	-5.4%	13%	5%
6: Fc1ccccc1N1CCN(c2nc3ccccc3n3nnnc23)CC1
→ -2.9	1	-5	-9%	?	-9%	9%
7: CCn1cc(S(=O)(=O)NCCc2ccccc2OC)cn1
→ ·	1	5	-5%	0.1%	18%	0%
8: Cc1ccccc1OCC(=O)N=Nc1c(O)n(C)c2ccccc12
→ -0.7	4	12	-15%	1.6%	-7%	4%
9: COc1ccc(Cc2nc(-c3ccc(Br)o3)no2)cc1OC
→ 9.8	·	-12	-2%	-0.6%	-4%	-27%
10: CCOC(=O)/C(=N\Nc1ccccc1Cl)N1CCN(Cc2ccccc2)CC1
→ -0.8	-3	-18	-4%	-7.6%	2%	-10%
11: Cc1ccc(NC(=O)CSc2nc(O)cc(=O)n2-c2ccc(C)cc2)cc1
→ ·	2	5	2%	1.1%	-7%	-58%[inhibitor]
12: O=C(O)c1cccc2c1/C(=N/O)c1ccccc1-2
→ ·	·	-12	-15%	·	·	-8%[15.4 µM]
13: N/C(=N/OC(=O)c1ccc(Cl)cc1)c1ncc([N+](=O)[O-])s1
→ -0.5	-16	4	6%	1.8%	-4%	17%
14: CC(=O)Nc1cccc(C(=O)OCCCOc2ccc(F)cc2)c1
→ -11	1	-14	-3%	-3.0%	-9%	0%
15: O=C1NC(Cc2ccccc2)C(=O)N1Cc1cc([N+](=O)[O-])cc2c1OCOC2 (centres undefined)
→ -1.3	0	10	0%	·	11%	1%[15.4 µM]
16: COc1ccc(Nc2nnc(SCC(=O)Nc3ccc4[nH]c(=O)[nH]c4c3)s2)cc1
→ -1.0	13	-2	7%	-4.4%	-15%	1%
17: CC(=O)N1CCN(S(=O)(=O)c2cccc(C(=O)NC3CCC(C)CC3)c2)CC1 (centres undefined)
→ -6.2	0	-15	-11%	·	11%	1%[15.4 µM]
18: Cc1ccc(NC(=O)CCSc2ccccn2)cc1
→ 3.6	-21	-7	-5%	-6.2%	12%	-4%
19: Cc1nn(S(=O)(=O)c2ccc([N+](=O)[O-])cc2)c(C)c1Sc1ccccc1
→ ·	·	15	2%	0.7%	·	0%
20: O=C(NNC(=O)c1cccs1)Nc1cccc(Cl)c1
→ 0.1	·	-6	10%	0.0%	-4%	-4%[15.4 µM]
21: Cn1c(/C(C#N)=C/c2ccc(O)cc2)nc2ccccc21
→ 28	-23	·	-9%	-0.5%	-7%	?
22: CC(C)(C)c1nc(Sc2ccc([N+](=O)[O-])cn2)n[nH]1
→ 0.8	1	7	12%	2.2%	-9%	12%
23: CC1(C(=O)Nc2ccc(S(=O)(=O)Nc3ncccn3)cc2)CCCC1
→ ·	·	7	4%	-0.2%	·	0%[15.4 µM]
24: Cc1cc(NS(=O)(=O)c2cc(Cl)sc2Cl)no1
→ 1.3	?	16	?	-0.6%	16%	-3%[15.4 µM]
25: CC1CN(C(c2ccco2)c2sc3ncnn3c2O)CC(C)O1 (centres undefined)
→ 9.9	·	-2	11%	1.8%	40µM*	-71%[inhibitor]
26: O=c1onc(-c2ccccc2)n1Cc1ccc([N+](=O)[O-])cc1
→ ·	·	10	·	0.7%	·	-5%
27: Cc1cccc(NS(=O)(=O)c2cccc3nonc23)c1
→ 0.8	-16	3	-5%	·	-15%	19%
28: CC(Oc1ccccc1)C(=O)NCc1cccnc1 (centres undefined)
→ -2.3	·	-8	8%	-3.1%	-6%	-7%
29: Cc1cccc(NC(=O)CSc2nnc(CNC(=O)c3cccs3)o2)c1C
→ 1.3	?	25	12%	·	12%	-2%[15.4 µM]
30: Cc1ccc(S(=O)(=O)NNC(=O)c2csnn2)cc1
→ 1.8	-2	4	3%	-2.1%	10%	1%
31: O=C(NCCO)Nc1ccc(Cl)cc1
→ -2.2	-11	-27	10%	·	22%	?
32: CCn1cc(/C=N\NC(=O)Cc2ccc(Cl)cc2)cn1
→ 0.4	-1	-10	3%	-2.4%	6%	-17%
33: CCCCn1c(N)c(N(CCOC)C(=O)c2nn(CC)c(=O)c3ccccc23)c(=O)[nH]c1=O
→ ·	-13	-9	11%	-4.0%	·	-1%
34: Cc1cccc(C)c1NC(=O)c1ccc(-n2cncn2)nc1
→ -0.1	2	24	-9%	-0.6%	15%	-41%[inhibitor]
35: COc1ccccc1NC(=O)COc1ccc2c(c1)OCO2
→ -4.2	0	44	0%	0.8%	13%	-12%
36: CC(C)CC1C(=O)N(Cc2cn(Cc3ccco3)nn2)CCS(=O)(=O)N1Cc1ccc(-c2cccc(CO)c2)cc1 (centres undefined)
→ ·	·	14	·	1.1%	·	-20%
37: COc1ccc(C2CC(C(F)(F)F)n3ncc(C(=O)Nc4c(C)n(C)n(-c5ccccc5)c4=O)c3N2)cc1 (centres undefined)
→ 3.3	-10	-5	-1%	1.5%	19%	-35%[inhibitor]
38: COc1ccc(C2=C(C#N)C(=O)OC2)cc1
→ ?	·	11	-3%	-23%	1%	0%
39: COC(=O)[C@@]12CCCCN1[C@H](c1ccc(-c3ccc(F)cc3)cc1)[C@@H]1C(=O)N(C)C(=O)[C@@H]12
→ ·	-15	78	-7%	-13%	·	·
40: CCOC(=O)N1CCC(N2CCN(S(=O)(=O)c3ccc([N+](=O)[O-])cc3)CC2)CC1
→ -1.7	-12	-2	-7%	-0.3%	?	1%
41: COc1ccc(-n2c(SCC(N)=O)nnc2-c2cccnc2)cc1
→ 0.6	-2	2	2%	1.1%	10%	-1%
42: CC1=C(C(=O)N(C)C)CC(CC(=O)NCCN2CCOCC2)C(=O)N1Cc1ccc(C(C)(C)C)cc1 (centres undefined)
→ ·	·	15	·	-0.6%	·	?
43: CCCCC(NC(=O)c1cccc(Br)c1)C(=O)O (centres undefined)
→ 3.1	13	30	3%	·	-10%	-1%[15.4 µM]
44: Cc1ccc(N(C(=O)CCC(=O)Nc2cc(C)on2)C(C(=O)NC2CCCC2)c2ccncc2)cc1 (centres undefined)
→ 0.6	-1	20	-1%	0.6%	11%	?
45: CCC1Oc2ccccc2N(CC(=O)NC2CCCCC2)C1=O (centres undefined)
→ 1.5	6	50	2%	·	12%	2%[15.4 µM]
46: COC(=O)c1cc2oc(C)cc2n1CC(=O)N(C)c1ccccc1
→ -0.1	6	-12	9%	-0.7%	?	-9%
47: N#Cc1nc(COc2ccc(F)cc2)oc1N1CCCC1
→ 6.4	1	-4	-2%	-0.5%	-25%	-25%
48: O=C(/C=C/c1ccc(OCCCF)cc1)N1CCN(Cc2ccccc2)CC1
→ -7.1	-6	-24	-10%	·	-5%	8%
49: O=C(NNC(=O)C1CCCO1)c1ccccc1Cl (centres undefined)
→ 1.1	-5	-22	7%[15.4 µM]	-0.6%	9%	-6%
50: CC1CN(C2CCN(C(=O)c3ccccc3)CC2)CC(C)O1 (centres undefined)
→ 0.7	-1	13	3%	-2.4%	-8%	-28%

(continued)
Below each SMILES – Menin MLL FP FL	TRPV1 potentiator	TRPML1 blocker	gsp antagonist	ClpP mod	Sfp inh	gsp agonist
51: CN1N=C2c3ccccc3CCCC2C1c1ccc(F)cc1 (centres undefined)
→ -1.8	-29	-10	2%	·	-6%	4%[15.4 µM]
52: CC1CCCC(C)N1C(=O)COC(=O)Cc1c[nH]c2ccccc12 (centres undefined)
→ ·	-15	-9	5%	-2.8%	·	18%
53: COC(=O)c1cnn(-c2nc(OC)cc(OC)n2)c1C
→ -0.5	-6	-5	0%	1.5%	15%	?
54: CC(C)C(=O)N1N=C2CCCCC2C1(O)C(F)(F)F (centres undefined)
→ 3.4	0	0	8%	0.4%	17%	3%
55: Cc1c(C(=O)O)nnn1-c1ccccc1
→ -1.2	2	-2	11%	0.5%	15%	-23%
56: COc1ccc(NC(=O)c2cccc(N3C(=O)C4C5C=CC(C6CC56)C4C3=O)c2)c(OC)c1 (centres undefined)
→ ·	-4	9	?	0.8%	3%	?
57: CCCN1CCC(=O)N(C(CSc2ccc(Br)cc2)Cc2ccccc2)CC1 (centres undefined)
→ 0.0	·	3	·	·	-14%	·
58: O=c1cc(CN2CCN(C/C=C/c3ccccc3)CC2)c2cc(O)c(-c3ccccc3)cc2o1
→ 8.9	2	-6	6%	-2.4%	20%	25%
59: COc1cc(/C=C/c2cc(OC(C)=O)c3ccccc3n2)c(OC(C)=O)c([N+](=O)[O-])c1
→ 5.5	-8	6	-17%	3.3%	9%	2%
60: Nc1c(N(CCO)C(=O)/C=C/c2ccco2)c(=O)[nH]c(=O)n1Cc1ccccc1
→ 24	8	0	5%	0.2%	-5%	-20%
61: O=C(O)Cc1ccc2ccc3ccccc3c2c1
→ ·	·	6	-17%	-3.4%	·	6%
62: Cc1noc(C)c1COc1cccc(C(=O)Nc2ccc3c(c2)OCO3)c1
→ -1.2	-6	29	-8%	-0.9%	2%	-23%
